miR-21 FLuc = miR-21 reporter, rising signal | HeLa miR-21 FLuc reporter, luciferase, 48 h | 340,000 tested, under 10 active | Potency, µM (series often up to 38.3 µM), without a hit: at the highest dose reporter change, positive = more light | AID 2288; active = well fitted rising curve with a large enough effect; inconclusive = small, poorly fitted or top-dose-only effect; inactive = no such curve, though single readings can be large or run the other way;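 note: % of control where 0% means no effect; miR-21 action dims this reporter so a rising signal means less miR-21 action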
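HeLa cells endogenously expressing miR-21, stably carrying CMV-driven firefly luciferase with a downstream miR-21 binding site, 2000 cells/well. Titrations up to approximately 40 uM, 48 hours; luciferase luminescence read.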
GLA inh pH 4.5 = alpha-galactosidase A (human) inhibition, pH 4.5; P06280; 230,000 tested, under 10 active; activity change, negative = inhibition, % at 105 µM; purified enzyme, 4-MU-alpha-Gal fluorescence, pH 4.5; inconclusive = small, poorly fitted or top-dose-only inhibition, or a rising curve; inactive = flat fitted curve, though single readings scatter; no compound was filed as active;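 note: 0% = full activity with enzyme and -100% = basal without enzyme; dose as in the result columns while the protocol names 77 µM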
Target sequence (P06280 whole entry, looked up): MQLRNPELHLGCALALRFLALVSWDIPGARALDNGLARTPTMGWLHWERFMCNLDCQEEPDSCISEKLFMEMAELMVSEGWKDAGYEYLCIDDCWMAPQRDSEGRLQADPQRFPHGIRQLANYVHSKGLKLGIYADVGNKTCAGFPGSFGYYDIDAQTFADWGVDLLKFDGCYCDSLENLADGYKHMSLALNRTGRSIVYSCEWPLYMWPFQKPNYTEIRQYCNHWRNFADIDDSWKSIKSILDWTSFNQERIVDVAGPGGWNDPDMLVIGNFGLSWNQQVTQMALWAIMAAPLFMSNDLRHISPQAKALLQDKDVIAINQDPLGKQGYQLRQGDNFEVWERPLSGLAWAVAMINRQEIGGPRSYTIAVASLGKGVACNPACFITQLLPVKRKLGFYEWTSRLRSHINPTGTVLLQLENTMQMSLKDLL
Rango complex inh = Rango-importin beta binding inhibition; 0.031% of 340,000 active; Potency, µM (highest dose often 92.2 µM), for inactives: at the top dose inhibition of complex formation; Rango CFP/YFP FRET sensor + importin beta, 45 min; active = rising FRET ratio curve, often small or poorly fitted; inconclusive = mostly compound fluorescence or quenching in the first reads; inactive = flat curves in all reads;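 note: potency is the fitted concentration of half-maximal effect; 0% = DMSO wells and 100% = buffer wells lacking importin beta; nearly all actives have a fitted effect of over 15% in size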
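FRET biosensor Rango (snurportin 1 IBB between N-terminal EYFP and C-terminal Cerulean), 50 nM in PBS/1 mM DTT/0.02% Tween-20/0.1% BSA, preincubated 5 min RT with compound; 0.125 microM importin beta added, 45 min RT, CFP/YFP FRET ratio read.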
Rango dissoc inh = inhibitors of RanGTP-induced Rango-importin beta complex dissociation; O95149+P62826; Biochemical FRET Rango-importin beta, RanGTP-induced dissociation; Potency, µM (doses to about 46.1 µM), without a hit: at the top dose activity change, negative = inhibition; 0.071% of 340,000 active; AID 540253; active means falling FRET ratio curve, often poorly fitted, with flat reads before Ran was added; inconclusive means other falling curves, or compound fluorescence or quenching; inactive means flat or rising ratio curve;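 note: potency is the fitted concentration of half-maximal effect; % of control where 0% means no effect; nearly all actives have a fitted effect of over 45% in size; -100% = wells without RanGTP and RCC1; the record marks most hits as doubtful in a second field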
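Two FRET readings bracket the reaction: one 5 min after compound meets Rango–importin beta, another 45 min after RanGTP-RCC1 (0.6 uM Ran, 0.2 uM RCC1, 2 mM GTP) is added. Only the second defines inhibition.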
The depositor's hits bear a star; ? = inconclusive; · = not tested or not shown. These rows are one share of the data; count on the stated rates, not on these rows.

| Rango dissoc inh | canonical_smiles | GLA inh pH 4.5 | Rango complex inh | miR-21 FLuc |
| --- | --- | --- | --- | --- |
| 0.9% | CC(=O)C[C@H]1c2cc(C(F)(F)F)ccc2S(=O)(=O)N1c1ccc(N(C)C)cc1 | · | -0.4% | · |
| -10.7% | O=C(Nc1nc2ccccc2[nH]1)c1ccc(Cl)cc1 | · | 2.7% | ? |
| 0.9% | COc1ccccc1C1CCN(C(=O)c2ccco2)CC1 | 22.2 | 0.4% | -3.2% |
| 15.1% | CCN(CC)S(=O)(=O)c1ccc(NC(=O)COC(=O)c2c[nH]c(=O)[nH]c2=O)cc1 | -0.1 | 1.5% | 0.4% |
| -7.1% | COc1ccc(C(=O)NC(=S)Nc2ccc(CN3CCOCC3)cc2)cc1Cl | · | -3.8% | 12.1% |
| -17.9% | O=C(NCCN1CCOCC1)c1ccc2c(c1)N(Cc1ccc(Cl)cc1)CCS2 | 19.9 | -0.7% | 4.1% |
| -1.0% | CCCC(=O)Nc1ccc(C(=O)NNC(=O)c2cccc([N+](=O)[O-])c2)cc1 | -3.1 | -5.1% | -2.6% |
| -11.9% | Cc1ccccc1CNC(=O)CC1C(=O)NCCN1CC1CCCCC1 (centres undefined) | 5.5 | 2.2% | -0.5% |
| -6.7% | CC1CN(c2nc(-c3ccccc3)nc3ccccc23)CC(C)O1 (centres undefined) | -5.4 | 1.2% | -7.4% |
| 0.2% | COc1ccc(-c2csc(NC(=O)c3nc(-c4ccccc4)oc3C)n2)cc1 | 3.3 | -1.9% | -3.4% |
| -18.1% | COc1c([N+](=O)[O-])c(=O)n(-c2ccccc2)c2ccccc12 | -2.2 | -1.1% | -9.8% |
| -9.3% | Cc1nc(S/C(=C/c2ccc(OCc3ccc(C(=O)O)cc3)cc2)C(=O)O)n[nH]1 | -9.0 | 0.4% | -3.5% |
| 2.3% | COc1ccc(S(=O)(=O)N2CCC(C)CC2)cc1Br | -15.7 | -1.1% | -2.1% |
| -13.6% | Cc1cc(N2C(=O)C(O)=C(C(=O)c3cccs3)C2c2ccccc2)no1 (centres undefined) | -12.5 | ? | -3.9% |
| 1.0% | O=C(CC1C(=O)OCC2CCCCN21)Nc1ccccc1C(F)(F)F (centres undefined) | -4.1 | -0.2% | -2.3% |
| ? | COc1cc(CN2CCNC(=O)C2CC(=O)N(C)CCC2CCOCC2)cc(OC)c1 (centres undefined) | · | 0.7% | 0.4% |
| 15.1% | CCCn1nc(C(=O)OCC(=O)NC(C)c2ccccc2)c2ccccc2c1=O (centres undefined) | -10.6 | -3.7% | 0.2% |
| -17.6% | CCCN1C2CCCC1CC(NC(=O)c1cccc([N+](=O)[O-])c1)C2 (centres undefined) | · | ? | 0.5% |
| 0.2% | Clc1ccc(NC2=NCCCCC2)cc1 | -3.3 | 7.5% | -4.7% |
| -8.2% | COc1ccccc1C(=O)NNc1ncc(C)s1 | · | 2.4% | -10.5% |
| -8.7% | CC(=O)C1=C(C)Nc2ncnn2C1c1ccc(C)cc1 (centres undefined) | · | -1.9% | -6.9% |
| -3.0% | N#C/C(=C/c1cn(-c2ccccc2)nc1-c1cccc(OCc2ccccc2)c1)C(=O)NCCCn1ccnc1 | -7.1 | ? | 10.0% |
| -1.8% | Cc1ccnc(SCCn2c(N3CCCCC3)nc3c2c(=O)n(C)c(=O)n3C)n1 | 8.9 | -0.1% | -4.2% |
| -11.6% | NC(=O)NC(=O)C(Nc1ccc2c(c1)CCC2)c1ccccc1 (centres undefined) | · | 0.8% | -9.7% |
| 17.2% | C=CC[C@H](CC(=O)N(CCO)Cc1ccccc1)C(=O)N[C@H](COC(=O)[C@H](CC=C)CC(=O)OC(C)(C)C)Cc1c[nH]c2ccccc12 | · | 0.3% | · |
| 10.4% | O=C(CSc1cn(CCNC(=O)c2ccccc2)c2ccccc12)NCc1ccco1 | -14.9 | 6.4% | 4.4% |
| 17.3% | COc1cccc(C(=O)NCCS(=O)(=O)NC(C)CCc2ccccc2)c1 (centres undefined) | · | -1.6% | · |
| 7.3% | COc1ccccc1C(=O)N1CCN(Cc2nc(CC3CC3)no2)CC1 | 4.2 | 5.3% | -3.1% |
| -6.3% | Cn1c(=O)c(=O)n(C)c2cc(S(=O)(=O)N3CCc4ccccc43)ccc21 | 4.3 | ? | 0.1% |
| -12.7% | COC(=O)c1ccc(NC(=O)c2ccc3nc(C)sc3c2)cc1 | · | -0.3% | -24.5% |
| -11.3% | Brc1ccc(OCCN2CCOCC2)cc1 | · | -0.7% | -7.5% |
| 0.9% | CC(=O)Oc1c(I)cc(I)cc1C(=O)Nc1ccc(Cl)cc1 | · | 6.3% | ? |
| 3.0% | CCOC(=O)NC(=O)c1cn(Nc2ccccc2C(F)(F)F)c(=O)[nH]c1=O | -3.6 | 0.7% | -5.9% |
| -13.7% | CN(CCC#N)S(=O)(=O)c1cc2c3c(c1)CCN3C(=O)CC2 | · | -2.5% | -1.0% |
| -6.6% | CC1CCN(C(=O)CSc2nnc(Cc3cccn3C)n2CCc2ccccc2)CC1 | 5.2 | 0.6% | -6.9% |
| -9.0% | CCOC(=O)c1cc(C)sc1/N=C/C1=C(O)CCCC1=O | -0.8 | ? | -0.4% |
| 25.1% | CCC/C(C#Cc1cc(OC)cc(OC)c1)=C1/c2ccccc2C(=O)N1c1ccccc1 | · | -1.7% | · |
| -3.7% | O=C(COC(=O)c1ccccc1C(=O)N1CCN(c2ccc(F)cc2)CC1)NCc1ccccc1 | 0.0 | -1.3% | 11.3% |
| -9.6% | COc1cccc(NC(=O)CN(C)C(=O)c2ccc(NC3CC3)c([N+](=O)[O-])c2)c1 | · | -0.8% | · |
| 3.7% | Cc1ccc(C)c(OCCC(=O)OCC(=O)Nc2cc(S(=O)(=O)N3CCCCC3)ccc2C)c1 | · | -0.3% | · |

No new results follow: 20 of the compounds above.
| Rango dissoc inh | canonical_smiles | GLA inh pH 4.5 | Rango complex inh | miR-21 FLuc |
| --- | --- | --- | --- | --- |
| -8.7% | CC(=O)C1=C(C)Nc2ncnn2C1c1ccc(C)cc1 (centres undefined) | · | -1.9% | -6.9% |
| -3.0% | N#C/C(=C/c1cn(-c2ccccc2)nc1-c1cccc(OCc2ccccc2)c1)C(=O)NCCCn1ccnc1 | -7.1 | ? | 10.0% |
| -1.8% | Cc1ccnc(SCCn2c(N3CCCCC3)nc3c2c(=O)n(C)c(=O)n3C)n1 | 8.9 | -0.1% | -4.2% |
| -11.6% | NC(=O)NC(=O)C(Nc1ccc2c(c1)CCC2)c1ccccc1 (centres undefined) | · | 0.8% | -9.7% |
| 17.2% | C=CC[C@H](CC(=O)N(CCO)Cc1ccccc1)C(=O)N[C@H](COC(=O)[C@H](CC=C)CC(=O)OC(C)(C)C)Cc1c[nH]c2ccccc12 | · | 0.3% | · |
| 10.4% | O=C(CSc1cn(CCNC(=O)c2ccccc2)c2ccccc12)NCc1ccco1 | -14.9 | 6.4% | 4.4% |
| 17.3% | COc1cccc(C(=O)NCCS(=O)(=O)NC(C)CCc2ccccc2)c1 (centres undefined) | · | -1.6% | · |
| 7.3% | COc1ccccc1C(=O)N1CCN(Cc2nc(CC3CC3)no2)CC1 | 4.2 | 5.3% | -3.1% |
| -6.3% | Cn1c(=O)c(=O)n(C)c2cc(S(=O)(=O)N3CCc4ccccc43)ccc21 | 4.3 | ? | 0.1% |
| -12.7% | COC(=O)c1ccc(NC(=O)c2ccc3nc(C)sc3c2)cc1 | · | -0.3% | -24.5% |
| -11.3% | Brc1ccc(OCCN2CCOCC2)cc1 | · | -0.7% | -7.5% |
| 0.9% | CC(=O)Oc1c(I)cc(I)cc1C(=O)Nc1ccc(Cl)cc1 | · | 6.3% | ? |
| 3.0% | CCOC(=O)NC(=O)c1cn(Nc2ccccc2C(F)(F)F)c(=O)[nH]c1=O | -3.6 | 0.7% | -5.9% |
| -13.7% | CN(CCC#N)S(=O)(=O)c1cc2c3c(c1)CCN3C(=O)CC2 | · | -2.5% | -1.0% |
| -6.6% | CC1CCN(C(=O)CSc2nnc(Cc3cccn3C)n2CCc2ccccc2)CC1 | 5.2 | 0.6% | -6.9% |
| -9.0% | CCOC(=O)c1cc(C)sc1/N=C/C1=C(O)CCCC1=O | -0.8 | ? | -0.4% |
| 25.1% | CCC/C(C#Cc1cc(OC)cc(OC)c1)=C1/c2ccccc2C(=O)N1c1ccccc1 | · | -1.7% | · |
| -3.7% | O=C(COC(=O)c1ccccc1C(=O)N1CCN(c2ccc(F)cc2)CC1)NCc1ccccc1 | 0.0 | -1.3% | 11.3% |
| -9.6% | COc1cccc(NC(=O)CN(C)C(=O)c2ccc(NC3CC3)c([N+](=O)[O-])c2)c1 | · | -0.8% | · |
| 3.7% | Cc1ccc(C)c(OCCC(=O)OCC(=O)Nc2cc(S(=O)(=O)N3CCCCC3)ccc2C)c1 | · | -0.3% | · |

Next part.
| Rango dissoc inh | canonical_smiles | GLA inh pH 4.5 | Rango complex inh | miR-21 FLuc |
| --- | --- | --- | --- | --- |
| 14.9% | O=c1cc(NCCc2ccccc2)c2ccccc2o1 | 12.2 | 1.0% | -24.4% |
| 4.1% | CCCOc1ccc(CNC(=O)Cn2ncc3ccccc32)cc1 | -3.2 | 1.8% | -39.3% |
| -14.9% | CCCCC(NC(=O)c1ccc(Cl)cc1)C(=O)O (centres undefined) | 0.8 | -3.6% | 1.0% |
| -15.9% | C=CCn1c(SCc2ccc(C#N)cc2)nnc1-c1cccc(OC)c1 | 1.7 | 7.6% | 0.2% |
| -6.4% | CCC(Sc1nc(C)cc(C)n1)C(=O)Nc1ccc(S(N)(=O)=O)cc1 (centres undefined) | 4.4 | 1.9% | -2.4% |
| -10.1% | CCCCN1CC[C@H]2C=CC[C@@H](C(=O)Nc3ccccc3)[C@H]2C1=O | · | -0.5% | · |
| -15.4% | Cc1ccc(C2c3c(oc4ccccc4c3=O)C(=O)N2c2nnc(C(C)C)s2)o1 (centres undefined) | -4.8 | -5.0% | -5.0% |
| -22.9% | Cc1cc(C(F)(F)F)nn1CC(=O)N1CCCC1 | -1.5 | -5.1% | 0.2% |
| 15.0% | CCOc1cc(C(=O)N(CC)CC(=O)Nc2ccc3c(c2)OCCO3)ccc1OC | · | 1.9% | · |
| ? | CCOC(=O)C1CCN(Cc2ccc(-c3ccccc3)cc2)CC1 | · | 1.1% | 2.8% |

3 compounds from above, reduced to Rango complex inh, GLA inh pH 4.5 and Rango dissoc inh.
Molecule | Rango complex inh | GLA inh pH 4.5 | Rango dissoc inh
COc1ccccc1C(=O)NNc1ncc(C)s1 | 2.4% | · | -8.2%
C=CCn1c(SCc2ccc(C#N)cc2)nnc1-c1cccc(OC)c1 | 7.6% | 1.7 | -15.9%
Cn1c(=O)c(=O)n(C)c2cc(S(=O)(=O)N3CCc4ccccc43)ccc21 | ? | 4.3 | -6.3%

The results go on:
| Rango dissoc inh | canonical_smiles | GLA inh pH 4.5 | Rango complex inh | miR-21 FLuc |
| --- | --- | --- | --- | --- |
| -9.4% | O=C(NNC(=O)c1cc2cc3ccccc3nc2s1)c1ccc(F)cc1 | ? | -0.5% | -12.4% |
| 8.3% | O=C(CN1CCCCC1)N/N=C/c1ccc(Cl)cc1 | · | 1.2% | -6.0% |
| ? | CCOC(=O)N1CCC(Nc2nc3ccccc3nc2NS(=O)(=O)c2ccc(Cl)cc2)CC1 | -5.1 | ? | -41.6% |
| -12.6% | C=CCNc1oc(-c2ccco2)nc1S(=O)(=O)c1ccccc1 | · | 3.4% | 3.8% |
| -3.8% | Cc1ccc(CC(=O)Nc2ccc(C(=O)N3CCCCC3)cc2)cc1 | · | -3.1% | -8.9% |
| 0.6% | Cc1noc(NS(=O)(=O)c2ccc(NC(=O)CS(=O)(=O)c3ccccc3)cc2)c1C | 3.7 | 0.3% | -3.1% |
| 19.5% | CCCn1c(Nc2ccc(Cl)cc2)nc2ccccc21 | -5.0 | 3.6% | -5.5% |
| 1.4% | O=C(Nn1c(Cc2cccs2)nc2ccccc2c1=O)c1cccs1 | -1.7 | 0.7% | -4.5% |
